# High-throughput results from PubChem.
# GALR2 agonist: activates the human galanin receptor 2; O43603; activation, %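 (tested at 5 µM)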; 140,000 tested, 0.48% active; GALR2-expressing cells, agonist activation read-out;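 active = above mean plus 3 SD of all compounds, about 5% in these data, not always enough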;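 also: 0% = vehicle buffer wells and 100% = reference agonist at full effect; tested in CHO reporter cells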
# Target sequence (O43603 whole entry, looked up): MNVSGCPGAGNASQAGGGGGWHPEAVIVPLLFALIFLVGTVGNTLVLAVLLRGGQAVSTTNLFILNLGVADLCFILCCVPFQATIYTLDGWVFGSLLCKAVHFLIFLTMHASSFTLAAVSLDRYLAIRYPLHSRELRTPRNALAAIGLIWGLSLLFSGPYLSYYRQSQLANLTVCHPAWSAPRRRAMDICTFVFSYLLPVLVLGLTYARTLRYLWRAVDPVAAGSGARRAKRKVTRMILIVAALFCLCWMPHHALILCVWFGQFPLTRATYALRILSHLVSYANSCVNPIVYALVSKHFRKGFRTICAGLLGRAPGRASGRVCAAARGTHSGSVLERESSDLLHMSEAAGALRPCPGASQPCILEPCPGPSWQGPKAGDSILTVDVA
# HSV replic up: increases HSV replication in cells; maximum fold increase; AID 1956; 220,000 tested, 0.005% active; HSV replication augmentation in cells, fold increase;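 active = peak rise of 1.5-fold or more in the series; tested in PC3 cells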;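 also: first round at 10 µM; read as green reporter fluorescence; hits show the peak of a series up to 25 µM; 1 = signal of infected wells without compound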
# INS promoter inh: TRM-6 insulin promoter activity inhibition; TRM-6 cells (human fetal islet line), insulin promoter-eGFP reporter, imaging; reporter expression induced with tamoxifen; inhibition, % at 2 µM; 130,000 tested, 0.9% active; AID 1273;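 active = inhibition above the mean plus 3 SD, with well images judged a real hit on visual review, cut at about 60% in these data, passing the limit was not always enough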
# RGS16-Gao: RGS16-Galphao interaction regulator (human). 220,000 tested, 0.38% active. bead-based flow cytometry RGS16-Galphao binding, fluorescence; actives lie on both sides. AID 1441. O15492+P09471. binding response (% of control), % at 10 µM;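 active = below 25% or above 175%, edge rows of some plates excepted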;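 also: Galphao activated by GDP with aluminum fluoride before binding; 100% = wells without compound and 0% = beads without RGS; some results beyond the cut were filed as inactive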
# Target sequence (O15492 whole entry, looked up): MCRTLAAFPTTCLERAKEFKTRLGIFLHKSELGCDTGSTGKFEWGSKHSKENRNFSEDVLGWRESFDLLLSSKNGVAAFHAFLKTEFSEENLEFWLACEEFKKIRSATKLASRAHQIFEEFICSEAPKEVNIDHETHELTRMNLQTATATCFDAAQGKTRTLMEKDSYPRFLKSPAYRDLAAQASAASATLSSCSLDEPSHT
# Target sequence (P09471 whole entry, looked up): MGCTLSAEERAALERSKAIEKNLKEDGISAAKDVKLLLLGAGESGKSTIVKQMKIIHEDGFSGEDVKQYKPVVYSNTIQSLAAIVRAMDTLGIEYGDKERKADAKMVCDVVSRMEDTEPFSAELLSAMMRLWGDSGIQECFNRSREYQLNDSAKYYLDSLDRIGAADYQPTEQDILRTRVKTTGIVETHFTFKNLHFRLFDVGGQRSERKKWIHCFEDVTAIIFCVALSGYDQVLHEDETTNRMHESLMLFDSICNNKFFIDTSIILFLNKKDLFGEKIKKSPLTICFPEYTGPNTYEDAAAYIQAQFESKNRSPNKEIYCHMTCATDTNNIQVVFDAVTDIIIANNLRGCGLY
# PKD1 inh: PKD1 (human) kinase inhibition; AID 797; inhibition, %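 (about 10 µM by stock and volumes)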; 200,000 tested, 0.056% active; Q15139; PKD1 kinase fluorescence polarization assay;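 active = inhibition of 50% or more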;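 also: controls were vehicle for no effect and a reference inhibitor for full effect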
# INS promoter inh cell count: also measured in INS promoter inh; calls as there; normalized cell count, %; measured here: cell count, toxicity; reference of the scale not given here;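 cells exposed to compound for 48 h; stained nuclei by imaging scaled within each plate; lower means fewer cells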
# HSV replic up primary fold: recorded beside HSV replic up, whose call it bears; fold increase; compound at 10 µM; measured here: primary screen fold increase 10 uM; tested in PC3 cells;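 GFP signal in the first replicate; 1 = infected wells without compound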
# * = called active by the depositor; i = inactive; . = not tested or not shown; & = joins results of further samples.
# Preview, two compounds:
SMILES,GALR2 agonist,HSV replic up,HSV replic up primary fold,INS promoter inh,INS promoter inh cell count,RGS16-Gao,PKD1 inh
N#Cc1c(NC(=O)CSC2=NCCS2)sc2c1CCCC2,-0.1,i,0.95,20,87,98,-9
C=C(C)CSc1nc(N)c2c3c(sc2n1)CCC3,-0.1,i,1,-18,127,86,-8

# The listing, from the first entry:
SMILES,GALR2 agonist,HSV replic up,HSV replic up primary fold,INS promoter inh,INS promoter inh cell count,RGS16-Gao,PKD1 inh
N#Cc1c(NC(=O)CSC2=NCCS2)sc2c1CCCC2,-0.1,i,0.95,20,87,98,-9
C=C(C)CSc1nc(N)c2c3c(sc2n1)CCC3,-0.1,i,1,-18,127,86,-8
COc1ccc(C(=O)C[n+]2cc(-c3ccc(OC)cc3)n3c2CCCC3)cc1,.,i,0.98&0.96,-40&-7,154&76,105&115,-5&-2
Clc1ccc(-n2ncc3c(NCc4ccco4)ncnc32)cc1,-0.5,i,0.63,.,.,99,3
COC(=O)C1=C(N)n2c(s/c(=C\c3cccnc3)c2=O)=C(C(=O)OC)C1c1cccnc1 (configuration not stated),-2.1,i,1.1,55,77,-21,-7
CCOC(=O)c1[nH]c(C)c(C(=O)N(C)C)c1C,0.4,i,0.97,23,98,100,-7
CCCCCCCCCCCNC(=O)c1ccoc1C,-1.6,i,0.96,33,126,105,-2
CCOC(=O)c1cc(-c2ccc(F)cc2)n(CC(=O)NCc2cccnc2)c1C,.,.,.,36,114,104,-3
COc1ccc(NC(=O)Nc2c(C)n(C)n(-c3ccccc3)c2=O)cc1,-1.3,i,0.89,-20,101,107,1
O=C(CCN1C(=O)/C(=C\c2ccccc2)SC1=S)NNC(=O)c1cccnc1,-0.5,i,1.1,.,.,166,-8
CC1=C(C(=O)OCCc2ccccc2)C(c2ccsc2)NC(=O)N1C (configuration not stated),-1.0,i,0.99,-254,69,107,2
COC(=O)c1c(C)cc(C)n2c1nc1ccccc12,-1.8,i,1.1,.,.,103,-6
O=C1C=C(NCC2CCCO2)C2(CCCCC2)O1 (configuration not stated),-0.9,i,0.85,55,220,100,-10
CCOc1ccc(NC(=S)N(CCOC)C(C)c2cccnc2)cc1 (configuration not stated),.,i,0.99,.,.,109,-3
CCC1C(=O)N=C(SCC(=O)Nc2ccc(S(N)(=O)=O)cc2)NC1=O (configuration not stated),.,i,1,6,51,113,-4
Cc1ccc(C(=O)C2OC(=O)C(C)(C)C(=O)C2(C)C)cc1 (configuration not stated),-0.1,i,0.97,-23,67,120,-9
COc1ccc2ccccc2c1C(=O)/C=C\c1ccoc1,-1.1,i,1.2,79*,65*,114,-1
Cc1cc2c3c(ccc(C)c3n1)N=CN2c1ccccc1,-0.6,i,0.95,81*,122*,.,-4
COCCCNC(=O)/C(C#N)=C/c1cccc(NC(=O)c2ccccc2Cl)c1,-0.5,i,1,-10,105,97,0
CCOc1ccccc1/C=C/C(=O)c1ccc(Cl)cc1,0.2,i,0.74,25,138,102,-2
CCOC(=O)C1=NOC(CNC(=O)c2ccccc2Cl)C1 (configuration not stated),.,i,1,11,89,89,-6
O=C(C(Sc1ccccc1)c1ccccc1)N1CCN(c2ccccc2)CC1 (configuration not stated),-1.8,i,0.98,-31,88,67,6
CCc1ccc(NC(=O)CSc2nnc(Cn3c(=O)sc4ccccc43)n2C)cc1,0.0,i,0.93,.,.,105,-5
CCOC(=O)C1(Cc2cccc(OC)c2)CCN(Cc2ccccc2OC)CC1,.,i,0.81,.,.,107,-3
C#CCN(C(=O)CC1C(=O)NCCN1C/C=C/c1ccccc1)C1CCCCC1 (configuration not stated),.,i,0.99,.,.,113,-9
CC(C)OC(=O)c1cccc(C(=O)Oc2ccc(Br)cc2)n1,-0.5,i,0.85,3,152,115,1
Cc1ccc(NS(=O)(=O)c2cc(C(N)=O)ccc2C)cc1,-2.2,i,1.2,12,104,100,-6
CN1CCN(C(=O)c2ccccc2N(Cc2ccccc2)S(=O)(=O)c2ccccc2)CC1,-3.6,i,0.95,-47,78,108,1
Cc1cc(C)n2c(SCC(=O)NC3CCCC(C)C3C)nnc2n1 (configuration not stated),.,i,0.93,-17,172,96,0
Cc1nc2ccccc2nc1NS(=O)(=O)c1ccc(N)cc1,.,i,0.89,.,.,95,.

# 3 of the compounds above, bar-delimited:
smiles | GALR2 agonist | HSV replic up | HSV replic up primary fold | INS promoter inh | INS promoter inh cell count | RGS16-Gao | PKD1 inh
COCCCNC(=O)/C(C#N)=C/c1cccc(NC(=O)c2ccccc2Cl)c1 | -0.5 | i | 1 | -10 | 105 | 97 | 0
CCOc1ccccc1/C=C/C(=O)c1ccc(Cl)cc1 | 0.2 | i | 0.74 | 25 | 138 | 102 | -2
CCOC(=O)C1=NOC(CNC(=O)c2ccccc2Cl)C1 (configuration not stated) | . | i | 1 | 11 | 89 | 89 | -6

# The list continues.
SMILES,GALR2 agonist,HSV replic up,HSV replic up primary fold,INS promoter inh,INS promoter inh cell count,RGS16-Gao,PKD1 inh
C=C(C)c1cccc(C(C)(C)NC(=O)Nn2cnnc2)c1,-1.6,i,0.95,-43,98,94,-5
Cc1ccc(OCC(=O)O/N=C(\N)c2ccccn2)cc1,.,i,1,-16,74,101,-6
O=C(COC(=O)C1CCCCC1C(=O)N1CCc2ccccc21)NCc1ccco1 (configuration not stated),-0.4,.,.,.,.,97,-15
COc1cc(C(=O)NCC(=O)OCC(=O)Nc2ncc(Cl)cc2Cl)cc(OC)c1OC,.,i,0.98,.,.,100,3
CCOC(=O)C1(CC2CCCCO2)CCN(Cc2c(C)cc(C)cc2-n2cccn2)CC1 (configuration not stated),.,i,0.95,.,.,103,3
O=C(OCC(=O)N1CCN(c2ccccc2)CC1)c1ccco1,-0.1,i,0.97,.,.,101,-4
COCCN(C(=O)Cc1cccs1)C(C(=O)NC1CCCC1)c1cc(OC)c(OC)c(OC)c1 (configuration not stated),.,i,0.94,-77,98,107,-1
Nc1nonc1C(=O)NCCc1ccccc1,-1.4,i,0.66,.,.,109,2
CN1CCN(C(=O)NC2CCCCC2)CC1,-1.2,i,1.1,57,158,175,-1
COc1cc(NC(=S)NCc2cccnc2)c(OC)cc1Cl,.,i,1,-52,134,103,-3
Fc1ccc(-c2csc3ncnc(Cl)c23)cc1,-0.7,i,0.97,.,.,103,4
CCOC(=O)C1CCN(C(=O)c2ccc(N(C)S(=O)(=O)c3ccc(OC)cc3)cc2)CC1,.,i,1.1,.,.,102,-6
CCC(=O)Oc1ccc(C(=O)Nc2cccc(C(=O)c3ccccc3)c2)cc1,-2.4,i,0.91,29,116,108,3
Cc1cccc(Cn2c(N3CCN(c4ccccc4)CC3)nc3c2c(=O)n(C)c(=O)n3C)c1,0.3,i,0.87,.,.,100,6
COC(=O)[C@@]1(Cc2ccc(F)cc2)[C@H]2c3cc(C(=O)N(C)C)n(Cc4ccc(OC(F)(F)F)cc4)c3C[C@H]2CN1C(=O)c1ccccc1,-1.2,.,.,20,129,57,-11
CCOC(=O)CC(=O)CSc1ccc2nnc(-c3ccc(C)cc3)n2n1,-2.3,i,0.78,.,.,98,-3
CC(C)C1Oc2ccccc2N(CC(=O)N(Cc2ccccn2)C2CC2)C1=O (configuration not stated),-2.6,i,0.83,-243,107,94,0
CC(C)(C)c1ccc(Cn2ccc(-c3ccc4c(c3)OCO4)n2)cc1,-2.5,i,1.1,-21,124,79,5
CCOc1ccc(NC(=O)CS(=O)(=O)c2cn(C)c3ccccc23)cc1,-2.2,i,0.95,.,.,101,-9
CCCCC(=O)N1CCCC(c2nc3c(nnn3Cc3cc(C)ccc3C)c(=O)[nH]2)C1 (configuration not stated),-1.2,i,0.95,-39,128,116,-12
Cc1cc(=O)oc2cc(OCC(=O)OCC(=O)Nc3ccccc3F)ccc12,.,i,1,0,95,96,-3
CN(Cc1nc(-c2ccncc2)no1)S(=O)(=O)c1ccccc1,-1.7,i,1,-24,139,103,-2
CCN1CCN(CCNC(=O)CCCCCn2c(=O)[nH]c3cc(C(=O)OC)ccc3c2=O)CC1,-2.3,i,0.83,.,.,106,-3
Cc1ccc(SCc2c(C#N)c3ccccc3n2C)cc1,-1.3,i,0.97,-21,117,104,-2
CC(CN1CCOCC1)C(=O)O (configuration not stated),-0.2,i,0.84,21,155,66,11
OC(CNCc1ccc2c(c1)OCO2)COc1ccccc1 (configuration not stated),.,i,0.96,.,.,101,.
O=P(COc1ccccc1)(c1ccccc1)c1ccccc1,-1.3,i,0.95,-19,130,107,-6
Oc1ccccc1/C=N/NC(=S)NC1CC2C=CC1C2 (configuration not stated),.,i,0.72,.,.,101,.
COc1ccc(C)cc1NC(=O)CNC(=O)Cn1ccc2ccccc2c1=O,-2.3,i,0.76,-5,87,257,-3
COc1ccc(C(=O)Nc2ccc([N+](=O)[O-])cn2)c(OC)c1,-0.8,i,0.93,9,129,103,8
CSc1ccc(S(=O)(=O)Nc2cccc(F)c2)cc1,-1.7,i,0.76,-15,122,92,-10
Cc1ccsc1/C=N\NC(=O)c1n[nH]c2c1CCC2,0.0,i,0.84,.,.,111,-5
O=C1C/C(=C\c2c(F)cccc2Cl)N2CCC1CC2,.,i,1,18,53,58,9
COc1cc(OC)c(C2=NOC(C(=O)O)C2)cc1Cl (configuration not stated),-1.1,i,0.85,46,118,98,-11
COc1cc(/C(C)=N/NC(=O)CSc2nc3ccccc3[nH]2)ccc1O,.,i,0.94,.,.,98,.
Cn1cnnc1SCC(=O)Nc1cc(S(=O)(=O)N2CCCCC2)ccc1Cl,.,i,1.1,.,.,104,.
COc1ccc(-n2nc3c(c2NC(=O)c2ccc(Br)cc2)CS(=O)C3)cc1 (configuration not stated),-3.6,i,0.89,.,.,100,-8
O=C(O)C1CCC(=O)N1C1c2ccccc2Oc2ccccc21 (configuration not stated),-0.7,i,0.91,.,.,106,-3
Cc1ccc(C(=O)NCC(=O)OCC(=O)NC2CCS(=O)(=O)C2)cc1C (configuration not stated),-0.5,i,1.1,-46,153,100,2
Cc1ccccc1/C=N\NC(=O)c1csnn1,-1.2,i,1,20,119,97,-6
O=C1/C(=C\c2ccccn2)SC(=S)N1c1ccc(S(=O)(=O)Nc2nccs2)cc1,.,i,0.83,.,.,102,.
CCOC(=O)c1nnn(-c2nonc2N)c1-c1ccc(OCC)cc1,-4.1,i,1,0,55,90,-3
COc1ccc(N2C(=O)C(OC(C)=O)C2c2ccc(C)cc2)cc1 (configuration not stated),-1.1,i,1.1,0,41,103,5
CC(=O)Nc1cccc(-c2nc3ccc(NC(C)=O)cc3[nH]2)c1,-1.7,i,0.9,.,.,97,0
Cc1cc(C)n(-c2nc3ccccc3n3c(C)nnc23)n1,.,i,1,29,64,109,4
COc1ccc(C2CC(=O)N3CN(c4ccccc4F)CSC3=C2C#N)cc1OC (configuration not stated),-2.2,i,0.88,.,.,95,-23

# Compound profiles (already shown):
# `COc1ccc(C2CC(=O)N3CN(c4ccccc4F)CSC3=C2C#N)cc1OC` (configuration not stated) is listed as GALR2 agonist = -2.2; HSV replic up = i; HSV replic up primary fold = 0.88; INS promoter inh = .; INS promoter inh cell count = .; RGS16-Gao = 95; PKD1 inh = -23
# `COc1ccc(N2C(=O)C(OC(C)=O)C2c2ccc(C)cc2)cc1` (configuration not stated) is listed as GALR2 agonist = -1.1; HSV replic up = i; HSV replic up primary fold = 1.1; INS promoter inh = 0; INS promoter inh cell count = 41; RGS16-Gao = 103; PKD1 inh = 5
# `CC(=O)Nc1cccc(-c2nc3ccc(NC(C)=O)cc3[nH]2)c1` is listed as GALR2 agonist = -1.7; HSV replic up = i; HSV replic up primary fold = 0.9; INS promoter inh = .; INS promoter inh cell count = .; RGS16-Gao = 97; PKD1 inh = 0
